CBX7 AlphaScr: CBX7 chromodomain binding inhibitors, primary screen, biochemical, AlphaScreen; Chromobox protein homolog 7 (Homo sapiens), O95931; AlphaScreen His6-CBX7 / biotin-H3K27me3 peptide binding; hits give low values; normalised signal (fraction of DMSO) (concentration not given with the values); 66,000 compounds, 1.1% hits; AID 1224903, 2016; in the data active = normalised signal below about 0.5;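 note: 100 nL library stock added to about 20 µL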
Target sequence (O95931 whole entry, looked up): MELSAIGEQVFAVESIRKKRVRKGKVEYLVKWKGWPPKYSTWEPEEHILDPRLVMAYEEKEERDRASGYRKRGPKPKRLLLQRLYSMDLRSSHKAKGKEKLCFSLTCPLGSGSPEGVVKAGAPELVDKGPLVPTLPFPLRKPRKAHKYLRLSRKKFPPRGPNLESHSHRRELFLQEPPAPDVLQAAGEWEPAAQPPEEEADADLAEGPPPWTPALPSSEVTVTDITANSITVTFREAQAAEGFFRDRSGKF
CBX7 AlphaScr z-score: also measured in CBX7 AlphaScr; calls as there; z-score; measured here: z-score of CBX7 signal; some inactives read as strong as hits; reference of the scale not given here;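 same signal on another scale; lower means less binding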
The depositor's hits bear a star; & = joins results of further samples. A portion of the library; count on the stated rates, not on these rows.

SMILES	CBX7 AlphaScr	CBX7 AlphaScr z-score
Cc1cc(C)c(S(=O)(=O)NCCc2c(C)[nH]c3c(Cl)cccc23)c(C)c1	0.87	-4.6
Cc1[nH]nc2c1C(c1ccccc1)NC2=O (stereo not given)	0.99	-0.23
CC(C)CCNC(=O)c1ccc2c(c1)NC(=O)CN2C	1.1	0.15
COc1ccccc1C(=O)NCCc1cc2c(OC)ccc(OC)c2[nH]c1=O	1	0.87
Cc1[nH]c2ccccc2c(=O)c1CN1CCCC1	0.93	-1.1
CCOC(=O)c1[nH]c(C)c(C(=O)NCc2cccnc2)c1C	0.96	-0.53
Cn1ccnc1SCC(=O)Nc1nnc(-c2ccccc2)s1	0.87	-0.5
Cc1ccc(-n2c3c(cc(C(=O)Nc4ccc(Cl)cn4)c2=O)C(=O)CCC3)cc1	1.1	0.27
CCOC(=O)c1cccc(NC(=O)c2ccc(CNc3c(N4CCC(C)CC4)c(=O)c3=O)cc2)c1	0.99	-0.1
CCC(=O)NC(C)c1nc2ccccc2n1Cc1ccccc1C (stereo not given)	0.96	-1.9

Shown with bars between the fields: entries from further up
canonical_smiles | CBX7 AlphaScr | CBX7 AlphaScr z-score
CCOC(=O)c1[nH]c(C)c(C(=O)NCc2cccnc2)c1C | 0.96 | -0.53
Cn1ccnc1SCC(=O)Nc1nnc(-c2ccccc2)s1 | 0.87 | -0.5

(continued)
SMILES	CBX7 AlphaScr	CBX7 AlphaScr z-score
CCCN(CCC)C(=O)c1c[nH]c2ccc(S(=O)(=O)N(C)c3ccccc3C)cc2c1=O	1.1	1.4
CCc1ccc(-c2nc(SCC(=O)NCCCOC)c(-c3ccc(Cl)cc3)[nH]2)cc1	0.95	-0.83
Cc1ccsc1-c1nc(CSCC(=O)NC2CCCC2)c(C)o1	0.94	-1.2
O=C(Nc1cccnc1Cl)c1cc(-c2ccco2)on1	1.1	2.1
Cc1ccc(CN2CCN(CC(=O)N3CCCCCC3)C2=O)cc1	0.96	-0.73
CCc1ccccc1Nc1cc(C(=O)NCCOC)c2ccccc2n1	0.94	-0.93
COc1ccccc1N1CCN(C(=O)c2cc(-c3ccc(Cl)c(Cl)c3)on2)CC1	1	0.67
CCN1CCCC1CNC(=O)c1ccc2c(c1)N(Cc1cccc(F)c1)C(=O)c1ccccc1S2 (stereo not given)	0.97	-0.87
Cc1sc2ncn(CC(=O)Nc3ccccc3C(F)(F)F)c(=O)c2c1C	0.96	-1
COc1cccc(NS(=O)(=O)c2ccc3c(c2)CCN3C(C)=O)c1	0.94	-1.9
CC(C)(C)OC(=O)N1CCC(c2c(C(=O)Nc3ccc(Cl)cc3)cnn2-c2ccc(F)cc2)CC1	0.87	-3.4
CCOC(=O)c1cc(-c2ccc(OC)cc2)n(CCC(=O)Nc2ccc(OC)c(OC)c2)c1C	0.83	-1.8
CCOC(=O)N1CCN(c2c(NC(C)(C)CC)c(=O)c2=O)CC1	1	0.75
COc1cc(OC)cc(C(=O)Nc2c3c(nn2-c2ccc(Oc4ccccc4)cc2)CSC3)c1	0.85	-3.8
Cc1nn2c3ccccc3n(CC(=O)c3ccc(Cl)cc3)c2nc1=O	1	0.062
O=C(O)CCc1ccc(-c2ccccc2)n1-c1ccc(F)cc1	0.93	-1.2
COc1ccc(NC(=O)Cn2cc(S(=O)(=O)c3ccc(C)cc3)c(=O)c3ccccc32)cc1Cl	0.9	-1.4
COc1ccc(CCNc2nc(C)nc3sc4c(c23)CCCC4)cc1OC	0.96	-0.88
Cc1ccc(C(=O)N2CC(=O)Nc3ccc(Cl)cc3C2c2ccccc2)cc1 (stereo not given)	0.97	-0.57
CCOc1ccc(-c2nc(CSCC(=O)NCc3ccc(C)cc3)c(C)o2)cc1	0.89	-1.5
Cc1ccc(C(=O)Nc2c(-c3ccccc3)nc3ccccn23)cc1	0.96	-1.2
CCOc1ccc(C(=O)Nc2cc(-c3nc4cc(C)ccc4o3)ccc2Cl)cc1	1.1	1.5
CCC1CCCCN1S(=O)(=O)c1ccc2[nH]c(=O)cc(C(=O)NCCCN3CCCCC3)c2c1 (stereo not given)	1.1	0.89
O=C(O)c1ccc(-c2nc(-c3ccccc3)c(-c3ccc(Cl)cc3)[nH]2)cc1	0.95&0.82	-1.8&-3.5
COc1cccc(-c2nn(C)c3sc(C(=O)NCCCOC(C)C)cc23)c1	1.1	2.4
COc1ccc2nc(N3CCCC(C(=O)NCc4ccccc4OC)C3)sc2c1 (stereo not given)	0.94	-0.66
COc1cccc(OC)c1Cn1nnc2c(=O)[nH]c(C(=O)Nc3ccccc3Cl)nc21	0.94	-1.4
Cc1nc2ncccn2c1-c1csc(Nc2cccc(O)c2)n1	1.1	0.66
Cc1sc(Nc2ccccc2)nc1-c1ccc(Cl)cc1	0.9&1.1	-1.9&1.2
O=C(NC1CCCCC1)C(c1ccc(Cl)cc1)N1CCN(C2CCCCC2)CC1 (stereo not given)	1.2	1.5

A second format for some results above:
Structure: Cc1ccc(C(=O)Nc2c(-c3ccccc3)nc3ccccn23)cc1
- CBX7 AlphaScr: 0.96
- CBX7 AlphaScr z-score: -1.2

Structure: CCOc1ccc(C(=O)Nc2cc(-c3nc4cc(C)ccc4o3)ccc2Cl)cc1
- CBX7 AlphaScr: 1.1
- CBX7 AlphaScr z-score: 1.5

Structure: CCC1CCCCN1S(=O)(=O)c1ccc2[nH]c(=O)cc(C(=O)NCCCN3CCCCC3)c2c1 (stereo not given)
- CBX7 AlphaScr: 1.1
- CBX7 AlphaScr z-score: 0.89

Next section
SMILES	CBX7 AlphaScr	CBX7 AlphaScr z-score
Cc1cccc2nc(CN3C(=O)c4ccccc4C3=O)cn12	1.1	1
COc1ccc(CN2CC(C(=O)NCCCN3CCN(Cc4ccccc4)CC3)CC2=O)cc1 (stereo not given)	1	0.67
Cc1sc(NC(=O)c2ccc(S(=O)(=O)N(C)c3ccccc3)cc2)nc1-c1ccccc1	1	0.94
O=c1[nH]c2ccccc2nc1Cc1cccc(F)c1	1.2	4.8
Cc1cc(N2CCN(Cc3ccccc3)CC2)n2nc(C)c(-c3ccc(Cl)cc3)c2n1	1.2	1.6
Cc1nc2ccc(S(=O)(=O)NCc3ccc4c(c3)OCO4)cc2s1	1.1	0.29
Cc1ccc(NC(=O)c2sc3ncn(CC(=O)N4CCCC(C)C4)c(=O)c3c2C)cc1F (stereo not given)	0.97	-0.22
CCCCNC(=O)c1cc(Nc2ccccc2CC)nc2ccccc12	0.84	-2.5
O=C(Nc1c(-c2ccc(F)cc2)nc2ccccn12)c1ccc(Cl)cc1Cl	0.93	-1.6
CCOc1ccc(N2C(=O)CC(NCc3cccnc3)C2=O)cc1 (stereo not given)	0.98	-0.37
COc1ccc(NC(=O)CSc2nc(-c3ccc4c(c3)OCO4)cn2-c2ccccc2)cc1	0.81	-6.1
CCCN(CCC)C(=O)c1c[nH]c2ccc(S(=O)(=O)N(C)c3ccc(CC)cc3)cc2c1=O	0.96	-0.47
COc1ccc(Cc2nnc(NC(=O)Nc3cccc(Cl)c3)s2)cc1OC	1	0.062
CCOc1ccc(C2c3[nH]c4ccccc4c3CCN2C(=O)c2ccccc2Cl)cc1 (stereo not given)	0.71	-7.7
C=CCNc1nc2ccccc2nc1NS(=O)(=O)c1ccc(Cl)cc1	1	0.96
Cc1cccc(NC(=O)Cn2cnc3ccc(S(=O)(=O)N4CCC(C)CC4)cc3c2=O)n1	0.96	-1.2
CC(CCc1ccccc1)NC(=O)c1cc(=O)[nH]c2ccc(S(=O)(=O)N3CCCCCC3)cc12 (stereo not given)	1	1.2
COC(=O)c1c[nH]n2c(NC3CCC(C)CC3)c(-c3ccc(C)cc3)nc12 (stereo not given)	0.23*	-0.87*
COc1ccc(C2C3=C(CCCC3=O)Nc3ccccc3N2C(=O)C(C)C)cc1 (stereo not given)	1.1	1
CCn1c(NC(=O)Nc2cccc(C)c2C)cc2sccc21	0.96	-1.2
COc1ccc(-c2nnc(SCC(=O)NCCOc3ccccc3)n2-c2ccccc2)cc1	1	0.59
O=C(Nc1nc(-c2nc3ccccc3s2)cs1)c1ccccc1Oc1ccccc1	1.1	0.11
COc1ccc(C2(CNC(=O)Cc3ccc(OC)c(OC)c3)CCOCC2)cc1	0.99	-0.16
O=C(NCc1ccc(Cl)cc1)C1CCN(S(=O)(=O)c2cccc3cccnc23)CC1	1.2	0.66
COc1ccccc1Nc1nc(-c2ccc(C)cc2)nc2ccccc12	1.4	18
CC(=O)NC1C(OCc2ccccc2Cl)OC(COC(C)=O)C(OC(C)=O)C1OC(C)=O (stereo not given)	1.1	1.9
Cc1ccc(C)c2[nH]c(=O)c(CCNC(=O)c3ccc(F)cc3)cc12	1	0.82
CCC(=O)N1CCc2cc(S(=O)(=O)NCCC(=O)Nc3ccc(C)cc3)ccc21	1.1	1.9
O=C(NCc1cc(F)ccc1F)[C@H](Cc1ccccc1)N1Cc2ccccc2C1=O	0.54	-1.3
CCOCCCNC(=O)CN1C(=O)COc2ccc(S(=O)(=O)N3CCCC3)cc21	0.98	-0.73
Cc1noc(C)c1S(=O)(=O)NCc1ccc(Cl)cc1	1	0.062
COc1ccc2cc(CCNC(=O)c3ccc(OC)c(OC)c3)c(=O)[nH]c2c1	1	0.042
COc1ccc(C(=O)Nc2nnc(C(C)C)s2)c(OC)c1	0.92	-0.79
CC1CCN(S(=O)(=O)c2ccc3[nH]c(=O)cc(C(=O)NC4CCCC(C)C4C)c3c2)CC1 (stereo not given)	0.94	-1.2
CCOC(=O)c1cccc(Nc2nc(-c3cccnc3)nc3ccccc23)c1	0.82	-2.5
Cc1ccc2cc(CCNC(=O)C34CC5CC(CC(C5)C3)C4)c(=O)[nH]c2c1C	1.1	1.6
Cc1cc(Sc2ccccn2)c2ccccc2n1	1.1	1.4
CCc1nnc(NC(=O)c2ccc(S(=O)(=O)N3CCCCC3CC)cc2)o1 (stereo not given)	0.59	-12
CCCNC(=O)c1ccc2c(c1)N(Cc1ccc(F)cc1)CCS2	0.76	-6.4
CN(Cc1ccccc1)c1oc(COc2ccc(F)cc2)nc1C#N	0.44*	-3.5*
CCNC1(c2nnnn2-c2cccc(Cl)c2)CCCC1	1.1	1.4
Cc1ccc(-c2ccc(=O)n(CC(=O)NCCN3CCCCC3C)n2)cc1 (stereo not given)	1	-0.024
Cc1ccccc1CN1C(=O)CSc2ccc(C(=O)NCc3cccs3)cc21	1.1	0.6
CC(C)NC(=O)CSCc1cnn(-c2ccccc2)c1-n1cccc1	1	0.75
COc1ccc(C(=O)NCCc2cc3ccc(C)cc3[nH]c2=O)cc1	0.85	-1.9
COc1ccc(CCN2C(=O)N(c3ccc(F)cc3)C(=O)C2CC(=O)Nc2ccc(OC)cc2)cc1 (stereo not given)	0.97	-1.1
CCOC(=O)C(C)Sc1nnc(Cc2cc(=O)[nH]c(=O)[nH]2)n1-c1cc(C)ccc1C (stereo not given)	0.98	-0.05
COC(=O)c1ccc2nc(C)cc(Nc3ccc(N(C)C)cc3)c2c1	0.83	-5.9
CCn1c(=O)cc(OCC(=O)NCc2ccc(OC)cc2)c2ccccc21	0.86	-2.2
O=C(CCn1nc(-c2ccccc2)c2ccccc2c1=O)Nc1cccc(Br)c1	0.95	-1.4

3 entries from above, as labelled records.
> CCNC1(c2nnnn2-c2cccc(Cl)c2)CCCC1
  CBX7 AlphaScr: 1.1	CBX7 AlphaScr z-score: 1.4

> COc1ccc(CCN2C(=O)N(c3ccc(F)cc3)C(=O)C2CC(=O)Nc2ccc(OC)cc2)cc1 (stereo not given)
  CBX7 AlphaScr: 0.97	CBX7 AlphaScr z-score: -1.1

> COC(=O)c1ccc2nc(C)cc(Nc3ccc(N(C)C)cc3)c2c1
  CBX7 AlphaScr: 0.83	CBX7 AlphaScr z-score: -5.9

The listing continues.
SMILES	CBX7 AlphaScr	CBX7 AlphaScr z-score
Cc1cc(C)cc(NC(=O)C2CCCN(C(=O)c3cnn(-c4ccccc4)c3-n3cccc3)C2)c1 (stereo not given)	0.92	-4.1
Oc1ccc(Nc2nc(-c3ccccc3F)nc3ccccc23)cc1	0.95	-0.069
Cc1onc(-c2ccccc2)c1C(=O)Nc1cccnc1	1.1	0.087
O=C(O)c1cccc(Nc2ccnc3cc(Cl)ccc23)c1	1&0.98	0.032&-0.18
Cc1ccc(N2CC(C(=O)Nc3nccs3)CC2=O)cc1 (stereo not given)	0.82	-2.8
CCc1ccc(OCC(=O)Nc2c(C(=O)c3ccccc3)oc3ccccc23)cc1	0.87	-0.45
COc1nccnc1NS(=O)(=O)c1ccc(NC(=O)Nc2ccccc2)cc1	1	1.2
COc1ccc(-c2nc(Cn3c(SCc4ccccc4F)nc4ccncc43)c(C)o2)cc1	1	0.47
O=C(O)c1ccccc1-c1ccccc1C(=O)Nc1ccc(-c2nc3ccccc3o2)cc1	0.86	-1.7
CCN(CC)CC(O)Cn1c2c(c3ccccc31)CCN(C)C2=O (stereo not given)	1	0.52
c1ccc(OCc2cn3cccnc3n2)cc1	0.86	-1.6
CSc1cccc(Nc2cc(C(=O)NCCN3CCCCCC3)c3ccccc3n2)c1	1.1	0.13
O=C(c1cc(-c2cccc(Cl)c2)on1)N1CCc2ccccc2C1	1.2	1.3
O=C(Nc1ccc(S(=O)(=O)Nc2nccs2)cc1)c1ccc(Br)cc1F	0.97	-0.073
NS(=O)(=O)c1ccc(NC(=O)c2cnc3ccccn3c2=O)cc1	1	0.94
CCN(CCCNC(=O)c1cn(C)c(=O)c2c1c1ccccc1n2C)c1cccc(C)c1	0.96	-0.73
Cc1ccc(-c2nnc(Nc3ccc(Cl)cc3)c3ccccc23)cc1	0.87	-2.4
O=C(NCc1ccc2c(c1)OCO2)C1CCC(Cn2c(=O)[nH]c3ccsc3c2=O)CC1 (stereo not given)	1.1	0.24
CC1=CCC2C(=O)N(c3ccc4ccccc4n3)C(=O)C2C1 (stereo not given)	1	0.29
COC(=O)c1cnc(NCC2CCCO2)c2ccccc12 (stereo not given)	0.99	-0.22
O=C(NCc1ccccn1)C1CC(=O)N(CCc2ccccc2)C1 (stereo not given)	0.85	-7.1
O=C(CC1(O)C(=O)Nc2ccccc21)c1ccncc1 (stereo not given)	1	0.27
